# Six1-Eya2 inh: inhibitors of human Six1/Eya2 interaction. Q15475+O00167. AlphaScreen GST-Six1/His-Eya2 binding, biochemical; stronger effect = lower value; control for the full effect not named in the record. activity change, % (no concentration beside the values). 360,000 tested, 0.56% active. AID 651725; in the data active = activity change below about -65%; inconclusive = about -30% to -65%; inactive = above about -30%; also: % is scaled to controls: 0 for no effect and ±100 for the full control effect; compound concentration not given in the record
# Target sequence (O00167 whole entry, looked up): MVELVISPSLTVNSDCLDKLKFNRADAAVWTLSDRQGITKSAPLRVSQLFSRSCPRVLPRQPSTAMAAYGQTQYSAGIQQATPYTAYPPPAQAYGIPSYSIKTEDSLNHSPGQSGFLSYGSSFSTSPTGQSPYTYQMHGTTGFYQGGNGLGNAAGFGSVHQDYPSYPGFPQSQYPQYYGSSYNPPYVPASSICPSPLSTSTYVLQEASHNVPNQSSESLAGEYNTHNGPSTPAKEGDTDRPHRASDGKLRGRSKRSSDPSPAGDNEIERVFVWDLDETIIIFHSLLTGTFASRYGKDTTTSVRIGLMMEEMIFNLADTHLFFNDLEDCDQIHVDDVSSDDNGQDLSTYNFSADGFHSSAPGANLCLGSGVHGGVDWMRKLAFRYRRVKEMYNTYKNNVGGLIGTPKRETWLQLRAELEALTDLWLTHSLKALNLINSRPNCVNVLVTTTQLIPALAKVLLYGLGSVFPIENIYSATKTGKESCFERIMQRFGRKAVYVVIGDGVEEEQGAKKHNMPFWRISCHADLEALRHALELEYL
# Target sequence (Q15475 whole entry, looked up): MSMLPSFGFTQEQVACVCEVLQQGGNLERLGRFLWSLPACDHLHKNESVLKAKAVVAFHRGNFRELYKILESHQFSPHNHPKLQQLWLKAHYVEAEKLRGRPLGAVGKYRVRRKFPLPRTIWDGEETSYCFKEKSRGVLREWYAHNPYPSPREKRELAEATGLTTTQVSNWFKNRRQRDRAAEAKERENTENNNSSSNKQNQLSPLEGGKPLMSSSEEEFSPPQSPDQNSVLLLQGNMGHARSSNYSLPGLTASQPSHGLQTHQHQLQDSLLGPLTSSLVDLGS
#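 GST-Six1 + His-Eya2 (5X stock: 250/500 nM); Tris pH 8.0, 300 mM NaCl, 0.05% BSA, 0.02% Tween 20; GSH donor/Ni acceptor beads; 1 h 37 °C dark; AlphaScreen readout.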
# PINK1 expr mod: changes PINK1 expression; PINK1 immunofluorescence, high-content cytometry, 24 h; Potency, µM (highest dose often 76.6 µM), inactives show top-dose activation (PINK1 increase), most hits filed as activators; 410,000 tested, 0.2% active; active = well fitted activation curve with a large enough effect; inconclusive = small, poorly fitted or top-dose-only effect; inactive = flat fitted curve, though single readings scatter; cell line not stated here;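 also: potency is read from the fitted curve at half-maximal effect; % of control where 0% means no effect; nearly all actives have a fitted effect of over 65% in size; a mitochondrial uncoupler was the plate control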
#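 PINK1 protein level read as immunofluorescence by microplate cytometer in a fixed, stained stable cell line after 24 h exposure to five compound concentrations, with CCCP as control.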
# CtBP-E1A inh: CtBP/E1A binding inhibition | 340,000 tested, 0.49% active | AlphaScreen GST-E1A/His-CtBP binding, 1536-well; stronger effect = lower value; control for the full effect not named in the record | activity change, % (concentration not given with the values); in the data active means activity change below about -65%; inconclusive means about -30% to -65%; inactive means above about -30%; also: % is scaled to controls: 0 for no effect and ±100 for the full control effect
#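 Protein mix (5X: 125 nM each GST-E1A, His-CtBP) was incubated with pinned compound 2 h at 37 deg C in dark, in 50 mM Tris pH 8.0 buffer with 300 mM NaCl. Glutathione donor and nickel acceptor beads followed; AlphaScreen signal read after 1 h.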
# TRPML1 agonist: agonists of human TRPML1 channel; AID 624414; TRPML1-expressing cells, Ca2+ dye fluorescence, FDSS; host cell line not named in the record; reference of the full effect not given here; 410,000 tested, 0.12% active; activation, % (test concentration not listed); in the data active = activation above about 50%; inconclusive = about 30% to 50%; inactive = below about 30%; also: 0% is about no effect; the text of the record puts the active cut at 80%
#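 Tet-induced TRPML1-DL cells, 1,500 per well, cultured overnight, were loaded with a no-wash Ca2+ dye for 45–90 min. Calcium fluorescence was recorded on the FDSS for 110 s after compound addition, before the EC80 agonist (4 uM 54-4) was added.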
# TRPML1 inh: inhibitors of human TRPML1 channel; Q9GZU1; TRPML1-inducible cells, Ca2+ dye fluorescence, FDSS; stronger effect = lower value; inhibition of EC80 agonist-evoked calcium signal; activity change, negative = inhibition, % (no concentration beside the values); 390,000 tested, 0.02% active; AID 624415; in the data active means activity change below about -50%; inconclusive means about -30% to -50%; inactive means above about -30%;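 also: stimulus is agonist 54-4 at its EC80 concentration; % is scaled to controls: 0 for no effect and ±100 for the full control effect; compound concentration not given in the record; the text of the record puts the active cut at -80%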
#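 Tet-induced TRPML1-DL cells loaded with Ca8 no-wash calcium dye were read kinetically on FDSS. Compound addition was followed by EC80 agonist 54-4 (4 uM final); inhibition was read over 110 s.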
# D2 agonist: activates the human D2 dopamine receptor | P14416 | DiscoveRx PathHunter D2 beta-arrestin, luminescence, 90 min; 100% = 57 uM dopamine signal | activation, % (test concentration not listed) | 360,000 tested, 0.084% active; in the data active = activation above about 40%; inconclusive = about 15% to 40%; inactive = below about 15%; also: compound concentration not given in the record; the text of the record calls up to 30% inactive
#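 Agonist mode: compounds alone added to overnight-plated D2 PathHunter cells for 90 min at 37 C, with 57 uM final dopamine (EC100) defining full response. Beta-arrestin recruitment detected by chemiluminescent reagent, read after 1 h at ambient temperature.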
# Active calls of the source: *; ? = inconclusive; · = no result given; & = joins results of further samples; [ ] = dose if it differs, or a comment.
# Sequence of screens – TRPML1 inh	Six1-Eya2 inh	TRPML1 agonist	D2 agonist	CtBP-E1A inh	PINK1 expr mod
O=C(CCN1C(=O)/C(=C/c2ccc(Cl)cc2)SC1=S)Nc1cccnc1
    -1	-2	-0.1	5.9	-3	3.3%
C[C@@H]1CN([C@@H](C)CO)C(=O)c2cccc(NS(=O)(=O)c3ccc(F)cc3)c2O[C@H]1CN(C)C(=O)NC1CCCCC1
    27	9	-0.6	-0.6	11	-0.4%
CCOC(=O)c1[nH]c(C)c(C(=O)N(CC)CC)c1C
    33	3	0.8	-1.5	3	0.3%
CSc1ccc(C(O)c2ncc(-c3ccccc3Cl)[nH]2)cc1 (stereo not drawn)
    ·	-9	-1.0	1.4	-8	3.9%
O=C(Cn1nnc(-c2ccc(CN3CCOCC3)cc2)n1)Nc1nc(-c2ccccc2)cs1
    -3	-21	0.5	-2.5	-24	7.7%[38.3 µM]
CCc1c(C)sc2c1CCN(Cc1ccc(C#N)cc1)C2c1ccccc1 (stereo not drawn)
    24	·	-0.6	·	·	1.5%
CC(=O)Nc1ccc(SCC(=O)NCCc2ccc(F)cc2)cc1
    -15	10	-0.3	0.9	15	1.6%
Cc1c(Br)ccc(NC(=O)COc2ccccc2C(N)=O)c1C
    -12	-13	-0.6	-3.4	11	2.9%
CN1C(=O)N(CC(=O)Nc2sccc2C(N)=O)C(=O)C12CCCCC2
    14	2	0.2	5.9	-3	0.4%
O=C(CC1C(=O)NCCN1C(=O)Nc1ccccc1)Nc1ccc(F)cc1 (stereo not drawn)
    0	4	-0.2	-3.7	-3	0.8%
CC(C)NCC(O)COCCOc1ccc(Cl)cc1 (stereo not drawn)
    19	3	0.9	-2.0	·	0.4%
Fc1ccc(-c2cc(C(F)(F)F)nc(NCc3ccccc3)n2)cc1
    18	·	4.5	·	·	9.7%
O=C1C2C3CCCC3=C3CCCC3C2C(=O)N1c1ccc(F)cc1 (stereo not drawn)
    -3	11	0.0&-0.7	0.8	0	1.9%&-0.6%
NC(=O)c1c(NC(=O)c2cnccn2)sc2c1CCCC2
    6	?	-0.8	4.7	·	1.6%
Cc1cc(C)nc(-n2ncc(C#N)c2N)n1
    -5	1	-0.6	1.9	4	-1.1%
Cc1cccc2cc(C#N)c(SCC(=O)Nc3ccccc3N3CCOCC3)nc12
    1	0	2.9	-3.7	-3	20%
CCOC(=O)c1sc(NC(=O)c2cc(CC)on2)c(C(=O)OCC)c1C
    -8	·	-0.6	·	·	-0.8%
COC(=O)c1cnn2c3c(c(C)nc12)CCCC3
    -7	-1	-0.3	-2.9	-1	0.7%[38.3 µM]
Cc1ccc(S(=O)(=O)NCCNC(=O)c2nonc2N)cc1
    4	-3	2.1	0.7	2	1.9%
O=C(CN1CCN(c2ccccn2)CC1)Nc1ccccc1C(=O)Nc1ccccc1
    -11	-3	-0.6	2.1	0	-0.9%
C=CCn1c(N)c(C(=O)N2CCOCC2)sc1=S
    -9	0	0.8	-2.5	1	6.2%[38.3 µM]
CC(=O)N(Cc1cccnc1)Cc1cc2ccc(C)cc2[nH]c1=O
    5	2	0.0	-1.7	-2	-0.6%
Cc1cc(Br)ccc1SCC(=O)OCC(=O)Nc1ncc(C(F)(F)F)cc1Cl
    -14	-8	0.2	-1.2	14	0.6%
Cc1c(Cl)cccc1NC(=O)[C@@H](NC(=O)c1ccccc1Cl)C(C)C
    -9	-1	-0.1	-1.6	·	9.8%
CC(=O)NC(c1cccc(F)c1)c1nc(-c2cccc(C(F)(F)F)c2)cs1 (stereo not drawn)
    ·	1	-0.2	3.6	6	1.8%
O=C(Nc1ccon1)Nc1ccc(Cl)cc1Cl
    -8	0	0.2	-4.1	2	-1.1%
COc1cc(C(=S)N2CCOCC2)cc(OC)c1OC
    -16	4	1.3	1.7	-12	1.6%
CC1CCCC(NC(=O)C2CCC(CNc3c(N4CCCC4)c(=O)c3=O)CC2)C1C (stereo not drawn)
    -7	6	-0.7	-2.9	·	0.9%
Cc1coc2cc3oc(=O)c(CCC(=O)N4CCC(C(=O)O)(c5ccccc5)CC4)c(C)c3cc12
    ·	-1	·	-2.3	-5	1.0%
CCN(c1ccccc1)S(=O)(=O)c1ccc(Cl)c(C(=O)N2CCCC2)c1
    30	1	-0.6	-1.2	·	3.9%
O=C(Cn1c(=O)oc2ccccc21)Nc1n[nH]c(=S)s1
    -10	-2	-0.4	-3.2	-2	0.4%
CCOC(=O)N1CCN(CC(O)c2c[nH]c3ccccc23)CC1 (stereo not drawn)
    8	-1	-1.2	-1.3	-22	-0.6%
COCCN1CCC(CNCc2c(C(=O)N3CCCCC3)nc3c(C)cccn23)C1 (stereo not drawn)
    -8	7	0.8	3.4	·	0.9%
CCOC(=O)c1cc(C)n(-c2c(C)n(C)n(-c3ccccc3)c2=O)c1C
    -2	-8	0.5	1.0	-8	0.5%
COCCN(CCOC)C(=O)c1c[nH]c2ccc(S(=O)(=O)N(C)c3ccc(F)cc3)cc2c1=O
    -7	1	0.0	0.9	3	3.2%[38.3 µM]
CC(C)(C)c1nnc(NC(=S)Nc2ccccc2)s1
    4	-14	0.7	-3.7	1	11%
O=C(CNC(=O)c1ccco1)OC(C(=O)c1ccccc1)c1ccccc1 (stereo not drawn)
    -9	2	1.1	-5.3	-23	0.2%
CCOc1ccc(C2c3c(-c4cc(C)ccc4O)n[nH]c3C(=O)N2Cc2cccnc2)cc1OCC (stereo not drawn)
    2	·	1.7	·	·	7.7%
CCC1=Nc2cc(C(=O)NCCN(CC)CC)ccc2Sc2ccccc21
    1	·	0.2	·	·	1.2%
CN1CCN(C(=O)c2cnn(-c3cccc(F)c3)c2C2CCN(C(=O)OC(C)(C)C)CC2)CC1
    13	·	0.2	·	·	0.2%
CC1(c2nnnn2Cc2ccccc2)CCC(=O)N1CCOc1ccccc1 (stereo not drawn)
    ·	12	1.8	·	-22	-0.3%
Cc1ccc(Cn2c(N3CCCCCC3)nc3c2c(=O)[nH]c(=O)n3C)cc1
    3	3	2.5	2.2	-1	-2.5%
CNC(=O)c1cc2c(=O)n3cc(C)ccc3nc2n(C(C)C)c1=N
    -7	29	1.6	-6.1	0	-1.0%
O=C(CNC(=S)N(CCCN1CCOCC1)Cc1cccs1)NC1CC1
    8	-14	0.1	-4.7	-1	-0.7%
CC(C)c1ccc(NC(=O)CSc2n[nH]c(=O)n2Cc2ccco2)cc1
    -16	-2	1.1	5.9	·	0.0%
CCC(=O)Nc1ccc(NC(=O)CSc2nnc(-c3ccco3)n2C)cc1
    -3	-10	-0.1	-1.9	-8	-0.5%
COC(=O)c1ccc(COc2ccccc2/C=N/Nc2cccc(C(=O)O)c2)cc1
    5	-12	0.1	2.7	0	2.0%
Nc1cc(N)cc(C(=O)c2ccccc2)c1
    ·	-7	-0.8	5.1	0	6.0%
Cc1cc(=O)c2cc(Br)ccc2[nH]1
    2	-1	-0.7	0.7	4	0.6%
Cc1cc(NC(=O)CN2C(=O)C(C)(C)c3ccccc32)ccc1Br
    3	·	-1.2	·	·	?
O=C(Cn1nc(CNc2ccc(Br)cc2)[n+]2c1CCCCC2)c1ccc([N+](=O)[O-])cc1
    -12	-9	-0.7	8.2	-7	40µM*
COc1cccc(C(=O)Nc2ccccc2NC(=O)c2cccc(OC)c2)c1
    0	11	2.3	-0.3	-10	0.1%
Cc1cc(NC(=O)Nc2ccc(Cl)c(Cl)c2)no1
    8	-4	1.5	7.4	7	1.7%
O=C(CCC(=O)c1ccc(F)cc1)Nc1cc(Cl)cc(Cl)c1
    -2	3	1.3	-4.9	8	2.2%
CCn1c(SCC(=O)O)nnc1C1CCCCC1
    -6	12	0.8	0.3	9	-1.1%[38.3 µM]
Cc1ccc(NC(=O)c2cnc(N3CCCCC3)c3ccccc23)c(C)c1
    3	·	0.0	·	·	3.1%
CCOc1ccc(C(=O)Nc2ccccc2-c2ccccc2)cc1Cl
    30	18	4.2	-0.3	22	?
NC(=O)c1ccc(Br)c(S(=O)(=O)N2CCCCC2)c1
    -1	1	-0.3	0.3	4	-2.9%[38.3 µM]
CCOC(=O)N1CCN(S(=O)(=O)c2c(C)[nH]c(=O)[nH]c2=O)CC1
    19	2	-0.4	-1.0	1	0.1%
CCOC(=O)C1=C(CC)Nc2ccccc2N=C1NC(=O)CCNC(C)=O
    5	37	-0.4	-4.0	-16	-1.7%

# Compound profiles, as listed above. Order of values: TRPML1 inh, Six1-Eya2 inh, TRPML1 agonist, D2 agonist, CtBP-E1A inh, PINK1 expr mod
# Cc1ccc(NC(=O)c2cnc(N3CCCCC3)c3ccccc23)c(C)c1 in the list: 3, ·, 0.0, ·, ·, 3.1%
# COC(=O)c1ccc(COc2ccccc2/C=N/Nc2cccc(C(=O)O)c2)cc1 in the list: 5, -12, 0.1, 2.7, 0, 2.0%

# Next structures.
# Sequence of screens – TRPML1 inh	Six1-Eya2 inh	TRPML1 agonist	D2 agonist	CtBP-E1A inh	PINK1 expr mod
CCOCCCn1cnc2c(c1=O)c1nc3ccccc3nc1n2-c1ccc(C)cc1
    -2	1	1.5	-0.7	3	1.1%[38.3 µM]
O=C(COc1ccccc1)Nc1ccc2oc(=O)ccc2c1
    28	2	-0.5	7.3	-3	3.4%
CN(C)S(=O)(=O)c1ccc(C(=O)NCc2ccccc2)cc1
    0	9	-0.3	-3.2	3	-1.5%
O=C(Nc1cccc(C(=O)OCc2cc(=O)n3nc(C4CC4)sc3n2)c1)c1ccccc1
    -24	·	-1.0	·	·	-1.4%
CC(C)NC(=O)Cn1c(SCC(=O)N2CCCc3ccccc32)nc2ccccc21
    19	3	1.4	-1.3	4	?
CCc1ccccc1NC(=O)c1ccc(-c2csc(C)n2)cc1
    7	7	-0.4	2.7	2	1.7%
CCOC(=O)C1CCN(C(=O)Cn2cnc3sc(C)c(S(=O)(=O)N4CCC(C)CC4)c3c2=O)CC1
    -9	0	-0.6	-1.3	1	3.1%
O=C(CN1CCCc2ccccc21)NCc1ccc2c(c1)OCO2
    -1	-9	1.5	0.5	-17	-5.5%[38.3 µM]
CCCNC(=O)c1ccc(S(=O)(=O)c2ccc(OC)cc2)c([N+](=O)[O-])c1
    11	-5	1.4	7.0	3	4.9%
CCOC(=O)C1=CC[C@@H](c2cc3ccc(OC)cc3n2C)N(S(=O)(=O)c2ccc(C)cc2)[C@H]1C(=O)OCC
    39	-4	-0.4	-4.4	6	-0.4%
COc1cc(-c2csc(C)n2)ccc1O
    -6	-1	0.2	-0.7	0	2.4%
C=CCN(CC=C)c1nc2ccccc2nc1C(C#N)C(=O)OCCOC (stereo not drawn)
    -6	-7	1.8	5.2	1	3.8%
N#Cc1ccc(C2N=C(c3ccccc3)NO2)cc1 (stereo not drawn)
    -5	-1	-0.6	-1.1	-4	-0.6%
CC(=O)c1cccc(NC(=O)CN(c2ccc(C)cc2)S(=O)(=O)c2cccc3nonc23)c1
    0	-16	1.5	-5.5	-5	0.2%
CC(C)c1ccccc1NC(=O)Nc1nnc([C@@H]2C[C@H](O)[C@@H](CO)O2)s1
    ·	1	-0.7	-2.8	1	2.5%

# Screening data (PubChem BioAssay)
